Tgondii IFNg: T. gondii growth inhibition under IFN-gamma; Toxoplasma gondii growth in IFN-gamma-treated host cells; stronger effect = lower value; reference of the scale not given here; activity change, negative = inhibition, %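 (about 20 µM by stock and volumes)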; 69,000 tested, 3.8% active; AID 1259416;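 active = below -70%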;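 note: host cells are HeLa cells infected with Toxoplasma gondii; parasite growth read as luciferase light; one replicate is shown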
Active calls of the source: *; i = inactive. The list is partial (hit frequency here may not be typical).

SMILES	Tgondii IFNg
CN(C)CC(=O)N1[C@@H](C#N)[C@@H](c2ccc(-c3cccc(C(=O)N(C)C)c3)cc2)[C@@H]1CO	8
Cc1nc(-c2cccc(F)c2)sc1CCNC(=O)C(=O)Nc1cccc(F)c1	-1
CN(Cc1ccco1)C1COC2(CCN(S(C)(=O)=O)CC2)C1 (stereo unspecified)	0
CCCCN(C)C(=O)c1nc2c(s1)CCCN2c1ccc(C)nn1	-44
COc1ccc(S(=O)(=O)n2cccn2)c(C)c1C	8
CC1=C(C(=O)NCCCN(C)C2CCCCC2)C2(CCN(S(=O)(=O)c3cccs3)CC2)OC1=O	0
CCCCOC(=O)c1ccc(NC(=O)Nc2ccc(Cl)c(Cl)c2)cc1	-62
CCC(CO)N(Cc1ccsc1)C(=O)c1ccc2nc(C)[nH]c2c1 (stereo unspecified)	-4
C=CCN(Cc1ccc(SC)cc1)C(=O)C1CCOC1 (stereo unspecified)	-12
O=C1NC2(CCc3ccccc31)CCN(S(=O)(=O)c1ccc(F)cc1)C2 (stereo unspecified)	7

Rewritten comma-delimited: 7 of the compounds above.
smiles,Tgondii IFNg
CCCCN(C)C(=O)c1nc2c(s1)CCCN2c1ccc(C)nn1,-44
CCC(CO)N(Cc1ccsc1)C(=O)c1ccc2nc(C)[nH]c2c1 (stereo unspecified),-4
Cc1nc(-c2cccc(F)c2)sc1CCNC(=O)C(=O)Nc1cccc(F)c1,-1
O=C1NC2(CCc3ccccc31)CCN(S(=O)(=O)c1ccc(F)cc1)C2 (stereo unspecified),7
C=CCN(Cc1ccc(SC)cc1)C(=O)C1CCOC1 (stereo unspecified),-12
CC1=C(C(=O)NCCCN(C)C2CCCCC2)C2(CCN(S(=O)(=O)c3cccs3)CC2)OC1=O,0
COc1ccc(S(=O)(=O)n2cccn2)c(C)c1C,8

The main list resumes; the two compounds before the break are reprinted first.
SMILES	Tgondii IFNg
C=CCN(Cc1ccc(SC)cc1)C(=O)C1CCOC1 (stereo unspecified)	-12
O=C1NC2(CCc3ccccc31)CCN(S(=O)(=O)c1ccc(F)cc1)C2 (stereo unspecified)	7
Clc1cccc(Cl)c1CSCc1cc2ccccc2o1	-13
Cc1cc(C)n(CCc2nnc(N)s2)n1	-1
c1cncc(CN2CCC3(COCc4cnc(NCC5CC5)nc43)C2)c1 (stereo unspecified)	-5
Cc1ccc(-c2coc(-c3ccc(NC(=O)NCc4ccco4)cc3)n2)c(C)c1	-35
Cc1ncc(CN2CCC(CO)(CCc3ccccc3)CC2)s1	-1
FC(F)(F)c1cccc(Oc2nccnc2-c2noc(-c3cccs3)n2)c1	-34
O=C1COc2cc3c(cc2N1)NC(=O)CC3c1nccs1 (stereo unspecified)	-1
O=C1CCC2(CCCO2)CCN1Cc1nc2ccccc2s1 (stereo unspecified)	-3
CC(C)CC(=O)N1CCC2(CC1)Nc1cc(F)ccc1-n1cccc12	61
O=C(O)C1CSC(c2coc3ccccc3c2=O)N1 (stereo unspecified)	93
Cc1ccc(C(=O)NCCc2csc(-c3ccc(Cl)cc3)n2)cc1C	-30
CCCc1nnc(SCC(=O)N2CCCC(C)C2)n1CC1CCCO1 (stereo unspecified)	5
COc1ccccc1S(=O)(=O)N1CC[C@@H]2[C@H](CO)Nc3ccc(-c4ccc(C#N)cc4)cc3[C@@H]21	-65
Cn1ncc2c(NCCCNc3cccnc3)nc(C(C)(C)C)nc21	11
CCNC(=O)[C@@H]1C[C@H](N)CN1C(=O)CC1=C(c2cccs2)CCC1=O	0
O=C(c1cc(C(F)(F)F)cc(C(F)(F)F)c1)N1CC=CCC1	22
O=S(=O)(c1cccc2nonc12)N1CCCC1c1ccc(F)cc1 (stereo unspecified)	8
Cc1sc(NC(=O)CSc2nncn2C)c(C#N)c1C	6
Cc1ccccc1S(=O)(=O)N1C[C@@H](O)COC[C@@H]2O[C@@H](CC(=O)N3CCCCC3)CC[C@H]21	15
O=C(C[C@H]1C=C[C@@H](NS(=O)(=O)c2ccccc2)[C@@H](CO)O1)NCCN1CCCCC1	4
COc1ccc2c3c(n(C)c2c1)[C@@H](CO)N(C(=O)C1CC1)CC31CCN(Cc2cccc(F)c2)CC1	-26
CCCS(=O)(=O)N1CCO[C@H]2[C@@H](Oc3ccccn3)CC[C@H]21	15
CCc1cnc(C)nc1N1CCN(S(=O)(=O)c2ccccc2)CC1	-5
COc1ccc2c(c1)NC1(CCN(S(=O)(=O)c3ccc(C)cc3)CC1)c1cccn1-2	23
O=C([C@@H]1[C@@H](CO)[C@@H]2Cn3c(ccc(C4=CCCCC4)c3=O)[C@H]1N2)N1CCC(Cc2ccccc2)CC1	-48
CCN(C#N)c1nc(N(C)C)nc(N(C)C)n1	-22
N#C[C@H]1[C@H](c2ccccc2)[C@@H](CO)N1C(=O)c1cc(Cl)cc(Cl)c1	7
CS(=O)(=O)N1C[C@@H](OCCCn2cccn2)[C@@H]2OCCC[C@@H]21	-3
CC(=O)Nc1ccc(C(=O)N(Cc2ccco2)C2(C(=O)NCc3ccccc3)CCN(C(C)=O)CC2)cc1	33
CO[C@@H]1CC[C@H]2CCOc3ccc(C#N)cc3C(=O)N(C)C[C@H](c3ccccc3)CC(=O)N(C)C[C@H]1O2	-11
CC(C)Cc1nc(CCc2c[nH]c3ccccc23)n[nH]1	-5
CCCn1ccnc1CN1CCc2[nH]nc(-c3ccc4c(c3)OCO4)c2C1	-41
CC(=O)NCc1ccc(-c2cccc(CN3CCOCC3)c2)nc1	-20
CO[C@H]1CN(C)C(=O)c2ccc(NS(C)(=O)=O)cc2OC[C@H](C)N(C(=O)CN(C)C)C[C@@H]1C	-18
COCCC(=O)N1CCc2ncc(Cn3cccn3)n2CC1	395
CC1Cc2cc(-c3nccn3CCc3nc(-c4ccncc4)n[nH]3)ccc2O1 (stereo unspecified)	2
CCOCC1CCC2C1OCCN2Cc1cccs1 (stereo unspecified)	4
CC(C)n1cc(C(=O)N2CCOC(c3ccc(Cl)cc3)C2)cn1 (stereo unspecified)	8
CCn1c(SCc2nc(-c3ccccc3)oc2C)nc(=O)c2c(C(=O)OC)cc(C)nc21	i
CCOc1ccccc1NC(=O)CSc1ccc(Cl)cc1	11
Cc1cccnc1CC(C)NC(=O)c1cc(C(C)C)nc(N)n1 (stereo unspecified)	-49
CCOc1nc2cccc(C(=O)O)c2n1Cc1ccc(-c2ccccc2-c2nn[nH]n2)cc1	13
CSc1nc(C)c(Cc2c(F)cccc2Cl)c(=O)[nH]1	66
Cc1ccc(Nc2nc(C(=O)Nc3ccc(C)c(C)c3)nc3ccccc23)cc1	44
Nc1nccc2c1ncn2[C@@H]1O[C@H](CO)C(O)C1O (stereo partly specified)	-3
CN(C(=O)c1ccccc1NC(=O)COc1cccnc1)c1ccccc1	1
CCN1CCC2(C=C(C(=O)NC3CC3)c3ccccc32)CC1	-41
Cc1cc(Cl)ccc1OCCCC(=O)NO	-83*
CCN(C1CCCCC1)S(=O)(=O)c1ccc(OC)cc1	16
Cc1ccccc1C(=O)NC(=S)Nc1ccc(N2CCOCC2)c(Cl)c1	-21
Next part.
SMILES	Tgondii IFNg
CCS(=O)(=O)N1CCC2OCCCC2(COc2ccccn2)C1 (stereo unspecified)	-2
CC(C)c1cc(C(=O)Nc2cccc(Cl)c2N2CCOCC2)nn2cnnc12	-45
CC1(C)Cc2c(ccc3ccccc23)-c2nnc(-c3ccc(Cl)cc3)n21	-59
CCc1cc2cc(C)c(C)cc2nc1SCC(=O)Nc1cc(C)on1	-31
COc1ccc(CC(=O)Nc2ccc(C(=O)O)cc2)cc1OC	28
CCOC(=O)C1=NOC2C(=O)N(c3ccc(OC)cc3)C(=O)C12 (stereo unspecified)	7
c1ccc2c(c1)CCOC2CNCCCN1CCCCC1 (stereo unspecified)	21
CN1C2CCN(C(=O)c3cccn3C)CC2C[C@H]1CN1CCCC1 (stereo partly specified)	9
Fc1cccc(Cl)c1-c1nccn1Cc1cccnc1	3
Cc1cc(C)cc(NC(=O)CC2Sc3ccccc3NC2=O)c1 (stereo unspecified)	3
CCCc1cc(CNC(=O)CC2CCc3ccccc32)on1 (stereo unspecified)	-2
CCN1C(=O)[C@@H]2CN(C(C)=O)C[C@@H]2C12CCN(C(=O)COC)CC2	2
COCCN(C(=O)c1ccc(C)c(NC(=O)C2CC2)c1)C(C)C	-12
O=C1CCCN1CC1CN(C(=O)c2ccccn2)Cc2nccn2C1 (stereo unspecified)	-98*
CC(C)Cc1ccc(S(=O)(=O)N2CCC3(CC2)NCCN=C3NCc2ccc(F)cc2)cc1	-63
CCOc1ccc(N(Cc2nc(-c3cccc(Cl)c3)oc2C)S(=O)(=O)c2cccs2)cc1	-31
COc1ccc(Cl)cc1S(=O)(=O)N(C)CC(=O)N1CCCCCC1	37
CCC(NC(=O)c1cnc(SC)nc1)c1ccc(F)cc1 (stereo unspecified)	45
CO[C@H](CN(C)Cc1ccc2c(c1)OCO2)[C@@H](C)CN(C(=O)Nc1ccc(F)cc1)[C@@H](C)CO	25
COC[C@H]1CN(C)C[C@]12CCN(C(=O)CC1Cc3ccccc3C1)C2	-2
CC1(C)OC2OC(C(=O)N/N=C/c3ccccc3F)C3OC(C)(C)OC3C2O1 (stereo unspecified)	-61
CO[C@@H]1CN(C)C(=O)c2cc(NS(=O)(=O)c3cccc(Cl)c3)ccc2OC[C@@H](C)NC[C@@H]1C	56
Cc1ccccc1-n1nnc(C(=O)NCc2nnc(-c3ccccc3)o2)c1C	10
O=C(Nc1cccc(F)c1)c1ncn2c(C3CCN(CC4CC4)CC3)ccnc12	12
CCOC(=O)c1cc(C)nc2c1c(=O)n(Cc1nc(-c3ccccc3)oc1C)c(=O)n2C	23
COc1ccc(C)cc1S(=O)(=O)N1CC(c2ccncc2)C1	3
CC(NC(=O)c1c(O)c2cccnc2n(-c2cccc(F)c2)c1=O)c1ccc(F)cc1 (stereo unspecified)	50
COC(=O)c1c(NCC(C)C)c2cccc(Cl)c2[nH]c1=O	-7
O=C1CCC2(CCN(Cc3ccccc3)CC2)N1CC1CC1	1
CC(=O)N1CC(=O)N(c2ccccc2)CC12CCN(CC1CCOCC1)C2 (stereo unspecified)	-86*
O=C(Cn1ncc2c(N3CCCCCC3)ncnc21)Nc1ccc(F)cc1F	57
Cc1nnc(SCCC(=O)N[C@H]2C[C@H]3CN(C)CCN3C2)s1	6
COc1ccc2c3c(n(C)c2c1)[C@@H](CO)N(Cc1cc(F)ccc1F)CC31CN(C(=O)C2CC2)C1	-23
CC(CCc1ccc(O)cc1)NCCCOC(C)C (stereo unspecified)	-21
Nc1ncnc2c1ncn2[C@@H]1O[C@H](CO)C[C@H]1O	10
CCOC(=O)c1ccc(Nc2nc3ccccc3n3cnnc23)cc1	-21
CC(C)N1CCC(N2CCC(C(=O)N(C)C)CC2)CC1	0
Cc1ccc2c(c1)NC1(CCN(C(=O)c3cccc(F)c3)CC1)c1cccn1-2	49
Clc1ccc(-c2cncn2N2CCCCC2)cc1	-6
C[C@@H](NC(=O)C[C@H]1CC[C@H]2[C@H](COc3ccc(NC(=O)C4CCOCC4)cc3C(=O)N2C)O1)c1ccccc1	-5

Single values from above.
Value for CC1=C(C(=O)NCCCN(C)C2CCCCC2)C2(CCN(S(=O)(=O)c3cccs3)CC2)OC1=O under Tgondii IFNg: 0
Value for CC(NC(=O)c1c(O)c2cccnc2n(-c2cccc(F)c2)c1=O)c1ccc(F)cc1 (stereo unspecified) under Tgondii IFNg: 50
Value for COCCC(=O)N1CCc2ncc(Cn3cccn3)n2CC1 under Tgondii IFNg: 395
Value for CS(=O)(=O)N1C[C@@H](OCCCn2cccn2)[C@@H]2OCCC[C@@H]21 under Tgondii IFNg: -3
Value for CCOC(=O)c1cc(C)nc2c1c(=O)n(Cc1nc(-c3ccccc3)oc1C)c(=O)n2C under Tgondii IFNg: 23

The listing continues.
SMILES	Tgondii IFNg
C/C=C/c1ccc([C@@H]2[C@@H](CO)N(C(C)=O)C23CN(C(=O)NC2CCCCC2)C3)cc1	93
CC(C)N1CCNC(=O)C1CC(=O)NCCn1ccnc1 (stereo unspecified)	4
CCSc1nc(CC(=O)NCCc2n[nH]c3c2CCCC3)cs1	-8
C=CCn1c(N)c(-c2nc3ccccc3[nH]2)sc1=S	24
CN1CCCC2(CCN(C(=O)CCc3cc(Cl)no3)C2)C1=O (stereo unspecified)	3
Nc1ncnc2c1C(=O)N(c1ccc(C3CCC(CC(=O)O)CC3)cc1)CCO2 (stereo unspecified)	5
O=C(c1cccnc1)N1CCC2(CCN(c3cccnc3)C2=O)C1 (stereo unspecified)	11
Cc1cnc(CNC(=O)CSCc2ccccc2Cl)cn1	15
COc1ccc(NC(=O)c2ccc3nnc(C4CN(c5ncccn5)CCN4C)n3c2)cc1 (stereo unspecified)	-43
Cc1cnc(C)c(-c2cc(F)c3c(c2)CC(CNC(=O)C24CC5CC(CC(C5)C2)C4)O3)n1 (stereo unspecified)	-42
CCn1cc(CN2CCN(C(=O)c3ccc(OC)cc3)CC2)cn1	6
c1ccc2c(c1)CC(Nc1nc(C3CCCC3)nc3c1CNC3)CO2 (stereo unspecified)	2
Cc1ccc(NC(=O)NCC(c2cccnc2)c2cn(C)c3ccccc23)cc1Cl (stereo unspecified)	i
Cc1ccc(NC(=O)CC(=O)N2CCCCCCCC2)c(C)c1	14
Cc1ccc(C2(O)CCN(C(=O)c3n[nH]c4c3CCC4)CC2)nc1	8
C[C@@H]1CN([C@H](C)CO)C(=O)c2cc(C#CC3(O)CCCC3)cnc2O[C@@H]1CN(C)S(=O)(=O)c1cccc(F)c1	63
Cc1nc(CN2C[C@@H]3CN(Cc4nccn4C)C[C@H]3C2=O)cs1	-33
